HCMV NEC inh: inhibitors of HCMV UL50-UL53 interaction, biochemical, HTRF; normalized percent inhibition; inhibition, % (no concentration beside the values); 190,000 tested, 0.15% active; AID 1918969, 2023;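 active = both replicates at 50% or more, plus weaker picks with an unusually low signal ratio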;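 also: stock transfer was 100 nL into about 20 µL; 0% = negative control wells and 100% = wells with untagged competitor protein; inactives centre near -12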
Sa growth 42C: S. aureus growth inhibition at 42 and 30 °C, primary screen, LtaS inhibitor project, RN4220, two temperatures | AID 720641, 2013 | relative growth, % (concentration not given with the values) | 170,000 tested, 0.53% active | OD600, 20 h, 42 °C; hits give low values;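 active = growth at 42 °C up to 50% and 20 or more points under that at 30 °C, or under 10% at both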;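 also: 300 nL library stock went into each well; scaled to the means of positive and negative controls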
GIV-Gai inh: inhibitors of GIV peptide binding to Galpha-i3, primary screen, biochemical, fluorescence polarization, FITC-GIV GBA peptide, rat Galphai3 | 90 min; hits give low values; scaled: aluminum fluoride 0%, vehicle 100% | 210,000 tested, 0.42% active | percent of control (FP), % (test concentration not listed);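 active = replicate mean at 85% of control or lower, very high polarization wells dropped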;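 also: wells of about 15 µL received 100 nL stock; the first replicate is given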
Target sequence (P08753 whole entry, looked up): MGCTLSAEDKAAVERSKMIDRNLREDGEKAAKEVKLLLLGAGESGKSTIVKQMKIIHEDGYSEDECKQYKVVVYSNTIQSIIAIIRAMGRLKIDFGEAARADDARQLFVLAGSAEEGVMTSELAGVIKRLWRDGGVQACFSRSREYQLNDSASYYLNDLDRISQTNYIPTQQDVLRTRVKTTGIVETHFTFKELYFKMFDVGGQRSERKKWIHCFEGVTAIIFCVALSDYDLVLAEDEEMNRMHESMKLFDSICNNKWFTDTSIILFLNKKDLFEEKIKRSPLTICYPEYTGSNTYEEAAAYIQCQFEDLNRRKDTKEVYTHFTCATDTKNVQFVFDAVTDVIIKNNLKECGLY
Sa growth 42C second temp: further read-out of Sa growth 42C, marked with its call; relative growth, %; measured here: growth at 30 °C;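 optical density after 20 h as mean of two plates; 100% = untreated growth and lower means inhibition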
* hit, by the source's call; / = not tested or not shown.

SMILES	HCMV NEC inh	Sa growth 42C	Sa growth 42C second temp	GIV-Gai inh
COC(=O)c1ccc(Cn2cnc3c(cnn3C)c2=O)cc1	-18.5	90.6	78.5	/
CC1CCCN(CCCNC(=O)c2nc(-c3cccnc3)no2)C1 (stereo unspecified)	/	92.8	82.9	97.2
Cc1ccccc1C(=O)N1CCC(c2noc(-c3ccc(S(=O)(=O)N4CCCC4)cc3)n2)CC1	1.8	/	/	103.5
COCCOC(=O)C1=C(N)OC2=C(C(=O)CCC2)C1c1ccc(Cl)cc1 (stereo unspecified)	-15.2	/	/	97.0
COc1ccc2c(c1)c(=O)c(S(=O)(=O)c1ccc(Cl)cc1)cn2C	-6.2	106.3	82.4	111.5
COc1ccc(S(=O)(=O)Nc2cccc(N3CCCS3(=O)=O)c2)cc1F	-12.2	/	/	100.5
Cc1ccc(CN(Cc2ccco2)c2cnc(S(C)(=O)=O)nc2C(=O)Nc2ccc(Br)cc2)o1	20.7	99.3	88.5	104.5
Cc1nc(C)n(C)c(=O)c1-c1ccccc1	-10.4	95.0	92.5	104.9
COc1ccc(S(=O)(=O)N2CC(OCc3ccc(F)cc3)C2)cc1OC	-1.4	/	/	95.1
COc1c(C)cc(Br)cc1C(=O)NC(=S)Nc1cccc(-c2nc3ncccc3o2)c1C	-0.6	104.2	95.1	96.2
CCSC1=C(C#N)C(=O)NC(C(C)C)S1 (stereo unspecified)	/	103.7	90.8	97.9
O=C1CCCc2cc(S(=O)(=O)NCCCN3CCN(c4ccccc4)CC3)ccc2N1	-7.6	86.5	91.1	100.4
CCn1c(C)c(C)c2cc(C(=O)N3CCN(c4ccccc4)CC3)ccc21	/	92.5	63.4	108.0
COCCn1c2c(c(=O)[nH]c1=O)C(c1ccccc1)C1=C(N2)c2ccccc2C1=O (stereo unspecified)	-258.1	90.6	84.2	103.9
COc1ccc(C2CC(=O)c3cnc(NC(=O)c4ccccc4)nc3C2)cc1 (stereo unspecified)	5.8	106.5	102.8	101.3

Next section:
SMILES	HCMV NEC inh	Sa growth 42C	Sa growth 42C second temp	GIV-Gai inh
CCc1cccc(CC)c1Nc1ncnc(N)n1	-7.8	82.7	86.5	102.4
O=C(CSc1ncccn1)NCc1ccc(Cl)cc1	6.6	94.7	94.9	/
COc1cc(NC(=O)c2nn3c(C(F)(F)F)cc(-c4ccco4)nc3c2Cl)cc([N+](=O)[O-])c1	-24.0	/	/	98.4
CCOc1ccc2oc(=O)cc(CN(Cc3ccco3)C3CCCC3)c2c1	/	94.0	80.6	106.4
COc1cnn(C(C)(C)C)c(=O)c1Cl	-12.4	104.5	98.1	98.8
O=C(CCC(=O)N1CCc2ccccc2C1)N1CC=C(c2c[nH]c3ccccc23)CC1	/	115.0	86.9	110.7
Cc1ccc(/C=C/C(=O)Cc2ccccc2)cc1	-1.5	/	/	103.4
CCCCOc1cccc(C(=O)N(Cc2ccc(C)o2)c2ccccn2)c1	-25.6	101.0	91.4	105.4
CCOc1ccc(NC(=O)c2sc3nc(C)nc(N4CCN(c5ccccn5)CC4)c3c2C)cc1	-12.0	/	/	105.8
O=C(CCC(=O)N1Cc2ccccc2Oc2ncccc21)NC1CCCC1	-13.2	/	/	107.5
CC(C)Cc1nc2ccccc2n1CC(=O)N(c1ccccc1)C(C)C	/	110.8	79.7	99.9
Cc1ccnc(SCn2c(=S)sc3ccccc32)n1	-29.0	85.8	84.4	101.0
COC(=O)c1sccc1NC(=O)Cn1ccn2nc(-c3ccc4c(c3)OCO4)cc2c1=O	-31.3	/	/	102.9
CCN(CC)S(=O)(=O)c1ccc(/C=C/C(=O)OCC(=O)N2CCCCC2)cc1	-70.3	98.1	93.8	/
CCn1cc(C(=O)N2CCN(c3cccc(C(F)(F)F)c3)CC2)c2cc(OC)c(OC)cc2c1=O	17.9	104.2	101.3	102.1

4 entries from above in another layout.
Compound: COc1cc(NC(=O)c2nn3c(C(F)(F)F)cc(-c4ccco4)nc3c2Cl)cc([N+](=O)[O-])c1
  HCMV NEC inh: -24.0 | Sa growth 42C: / | Sa growth 42C second temp: / | GIV-Gai inh: 98.4

Compound: CCN(CC)S(=O)(=O)c1ccc(/C=C/C(=O)OCC(=O)N2CCCCC2)cc1
  HCMV NEC inh: -70.3 | Sa growth 42C: 98.1 | Sa growth 42C second temp: 93.8 | GIV-Gai inh: /

Compound: Cc1ccc(/C=C/C(=O)Cc2ccccc2)cc1
  HCMV NEC inh: -1.5 | Sa growth 42C: / | Sa growth 42C second temp: / | GIV-Gai inh: 103.4

Compound: CCOc1ccc2oc(=O)cc(CN(Cc3ccco3)C3CCCC3)c2c1
  HCMV NEC inh: / | Sa growth 42C: 94.0 | Sa growth 42C second temp: 80.6 | GIV-Gai inh: 106.4

The listing continues:
SMILES	HCMV NEC inh	Sa growth 42C	Sa growth 42C second temp	GIV-Gai inh
O=C(O)C1CSC(c2ccc(OCc3cccc(F)c3)cc2)N1 (stereo unspecified)	2.2	/	/	99.8
COc1ccc(C(CNc2nn3cnnc3c3ccccc23)N2CCOCC2)cc1 (stereo unspecified)	-26.4	/	/	103.9
Cc1cc(=O)n(CC(=O)NCCC(C)C)c2c1c(C)nn2C	/	78.5	87.6	98.9
CCC1CN(C(=O)NCc2ccc(C)cc2)c2cc(Cl)ccc2O1 (stereo unspecified)	4.2	75.2	90.0	104.6
Cc1cc(OCC(=O)NCC2(N3CCOCC3)CCCCC2)ccc1Cl	4.3	99.4	85.2	97.8
Cn1c(=O)c2c(nc(NCCc3ccccc3)n2C)n(C)c1=O	0.3	98.6	95.2	105.7
Cc1cc(C)n(C(=O)C2CC(=O)N(c3ccccc3)C2)n1 (stereo unspecified)	-3.6	111.6	84.4	105.6
N#Cc1ccc(/C=C/c2ccc(C#N)cc2)cc1	-14.6	95.8	84.1	99.8
CCOC(=O)CSc1nnc(-c2cccc(S(=O)(=O)N3CCCCC3)c2)n1-c1ccccc1	-12.3	102.5	86.2	/
COC(=O)c1c(NC(=O)CSc2nnnn2-c2ccccc2)sc2c1CCC2	-18.9	96.9	95.0	/
CC(C)OC(=O)CC1C(=O)NCCN1C(=S)NC(=O)C1CCCCC1 (stereo unspecified)	-9.0	102.4	73.0	104.7
S=c1[nH]c(=S)c2ccccc2[nH]1	-3.6	76.8	83.2	/
CCOC(=O)c1c(Nc2cc(C)cc(C)c2)nnc(-c2ccccc2)c1-c1ccccc1	-26.8	100.0	86.2	107.5
COc1cc(C2Nc3ccc4ncccc4c3C3=C2C(=O)CCC3)cc(OC)c1O (stereo unspecified)	-43.0	90.1	77.7	105.8
CC1CC(C)CN(S(=O)(=O)c2ccc3c(c2)oc(=O)n3CC(=O)NCCc2ccccc2)C1 (stereo unspecified)	2.8	99.7	72.4	103.1

Following part:
SMILES	HCMV NEC inh	Sa growth 42C	Sa growth 42C second temp	GIV-Gai inh
CC1CCN(C(=O)c2ccc(N3CCNCC3)c(NS(=O)(=O)c3ccc(F)cc3)c2)CC1	-13.6	/	/	104.0
COc1ccc(Cn2c(=O)c3[nH]cnc3n(-c3cc(S(C)=O)ccc3C)c2=O)cc1 (stereo unspecified)	-24.1	87.8	83.8	101.2
COc1ccc(N2CCN(C(=O)c3cnc4sc(C)c(C)n4c3=O)CC2)cc1	-26.9	/	/	103.5
Cc1[nH]c(SCC(=O)N2CCN(CC3CCCO3)CC2)nc1Cc1ccccc1 (stereo unspecified)	1.8	87.3	93.8	/
CN(C)c1ccc(P(C)(C)=O)cc1	-10.2	82.4	91.5	/
O=C(CSc1nnc(-c2ccco2)o1)N1N=C2/C(=C/c3ccco3)CCCC2C1c1ccco1 (stereo unspecified)	-21.6	94.5	88.7	/
Cc1cc(C)nc(NNC2=CC(=O)CC(C)(C)C2)n1	-72.1	82.6	94.6	/
O=C(CSc1nc2c(oc3ccccc32)c(=O)n1-c1ccccc1F)Nc1ccccc1	2.0	96.0	79.3	102.8
CC(C)OC(=O)CN1C(=O)c2ccc(C(=O)OC(C)C)cc2C1=O	/	72.1	95.8	93.6
CN1CCC(N(C)C(=O)CSc2ccc3ccccc3c2)CC1	-21.7	94.0	95.5	/
O=C(CC1Nc2ccccc2NC1=O)Nc1ccc(O)cc1 (stereo unspecified)	-77.6	98.7	81.0	113.5
COc1ccc(-c2cc3nc(C)c(CCC(=O)NC(C)c4cccs4)c(C)n3n2)c(OC)c1 (stereo unspecified)	/	115.6	92.1	100.9
Cc1ccc(CN(C)S(=O)(=O)c2ccc(Cl)cc2C(F)(F)F)o1	-20.5	71.5	84.0	/
CN(C)C(=S)SCC(=O)c1ccc(Cl)cc1	-25.4	82.8	83.2	97.1
CCOc1ccc(-c2csc(-c3nc(-c4ccc(C)cc4)c(C)s3)n2)cc1	23.4	/	/	107.1

Ordered by the number under GIV-Gai inh (highest first): some entries from above
SMILES	GIV-Gai inh
O=C(CC1Nc2ccccc2NC1=O)Nc1ccc(O)cc1 (stereo unspecified)	113.5
CC1CCN(C(=O)c2ccc(N3CCNCC3)c(NS(=O)(=O)c3ccc(F)cc3)c2)CC1	104.0
COc1ccc(Cn2c(=O)c3[nH]cnc3n(-c3cc(S(C)=O)ccc3C)c2=O)cc1 (stereo unspecified)	101.2
COc1ccc(-c2cc3nc(C)c(CCC(=O)NC(C)c4cccs4)c(C)n3n2)c(OC)c1 (stereo unspecified)	100.9
CN(C)C(=S)SCC(=O)c1ccc(Cl)cc1	97.1
CC(C)OC(=O)CN1C(=O)c2ccc(C(=O)OC(C)C)cc2C1=O	93.6

(next part)
The line under a structure holds: HCMV NEC inh | Sa growth 42C | Sa growth 42C second temp | GIV-Gai inh
> CC(=O)N1c2ccc(S(=O)(=O)NCC3CCC(C(=O)Nc4ccc(C)c(C)c4)CC3)cc2CC1C (stereo unspecified)
    / | 99.7 | 107.3 | 106.1
> CCN1CCN(C(=O)c2sc(-n3nc(C)c(Cc4ccccc4)c3C)nc2C)CC1
    1.3 | / | / | 102.7
> CN(C)c1ccc(/C=C(\C#N)C(N)=C(C#N)C#N)cc1
    / | 116.6 | 76.9 | -23.8*
> COC(=O)c1cc(=O)n2c(-c3ccccc3)nnc2s1
    3.6 | 103.0 | 100.6 | 98.5
> COc1cc2c(cc1OC)CN(C(=O)CSc1nc(C)cc(C)c1C#N)CC2
    -10.5 | 101.3 | 72.5 | 101.9
> O=C(CSCCOc1ccccc1)N1CCOCC1
    -6.4 | 103.8 | 105.7 | 103.0
> Cc1ccc(NC(=O)CN2CCN(CCNS(=O)(=O)c3ccc(C)cc3)CC2)cc1
    -40.2 | 104.1 | 80.6 | /
> COc1cc(Cl)c(C)cc1NC(=O)C1CCN(c2nc3ccccc3n3cccc23)CC1
    -18.3 | 106.5 | 89.9 | 102.2
> Cn1c(CCc2ccccc2)nc2cc(NC(=O)CCC3CCCC3)ccc21
    -19.9 | / | / | 101.5
> O=C(O)c1ccccc1NCc1ccccn1
    -21.8 | 98.1 | 82.4 | 97.5
> CC1CN=C(N(C(=O)Nc2cccc(Cl)c2)C2CCCCC2)S1 (stereo unspecified)
    -6.6 | 94.0 | 83.2 | 95.1
> CC(=O)Nc1ccc(N2S(=O)(=O)c3ccccc3S2(=O)=O)cc1
    / | 106.3 | 94.5 | 104.2
> Cc1ccc(C2Nc3ccccc3-n3c(-c4ccccc4)c4c(=O)n(C)c(=O)n(C)c4c32)c(O)c1 (stereo unspecified)
    -25.5 | / | / | 109.8
> CC1(C)OC(=O)C(=Cc2ccccc2F)C(=O)O1
    / | 78.2 | 96.1 | 105.9
> O=C(NC1CC(=O)N(c2cccc(F)c2)C1)C1CCCC1 (stereo unspecified)
    / | 95.6 | 83.7 | 99.2

Next section
The line under a structure holds: HCMV NEC inh | Sa growth 42C | Sa growth 42C second temp | GIV-Gai inh
> COc1ccc(Br)cc1/C=C1/N=C(c2cc(Cl)ccc2OC)OC1=O
    -17.6 | / | / | 101.1
> COc1ccc(N2CN(S(=O)(=O)c3ccc(NC(C)=O)cc3)c3nc4ccccc4nc32)cc1
    7.0 | 81.3 | 99.9 | /
> COC(=O)CN(C#N)c1nc(C)cc(C)n1
    1.3 | 83.5 | 115.8 | 97.8
> CCCCn1c(=O)n(CC(=O)NC2CCCCC2C)c(=O)c2c1ncn2CCC(C)C (stereo unspecified)
    -24.3 | 80.7 | 92.0 | /
> COc1ccc(S(=O)(=O)n2ccnc2)cc1C(C)(C)C
    -12.5 | 102.2 | 88.1 | 107.9
> CCN(CC)c1cc(C)c2cc(NC(=O)c3cccc(OC)c3OC)ccc2n1
    10.5 | 107.9 | 101.6 | 106.2
> Cc1nnc(-c2cc(S(=O)(=O)N3CCN(C(c4ccc(F)cc4)c4ccc(F)cc4)CC3)c[nH]2)o1
    -37.0 | / | / | 100.7
> NC(Cc1ccccc1)C(O)(c1ccccc1)c1ccccc1 (stereo unspecified)
    -6.2 | 100.6 | 92.8 | 101.9
> O=C(O)c1ccc2nc(-c3cc4cccc(O)c4oc3=O)[nH]c2c1
    / | 113.9 | 80.8 | 95.2
> Cc1c(NC(=O)CN(c2ccc(C(C)C)cc2)S(=O)(=O)c2ccccc2)c(=O)n(-c2ccccc2)n1C
    7.6 | / | / | 110.4
> CC(C)Cn1c(SCC(=O)Nc2sccc2C#N)nnc1-c1ccco1
    -37.3 | 75.7 | 83.7 | /
> CCOC(=O)C(=NC1CCS(=O)(=O)C1)NNc1cc(C(F)(F)F)ccc1Cl (stereo unspecified)
    -4.8 | 88.2 | 105.7 | /
> Cc1ccc(CSc2ccc(-c3cccs3)nn2)cc1
    / | 108.2 | 82.7 | 97.4
> COc1ccc(-c2noc(N(C)CC(=O)Nc3cccc(C)n3)n2)cc1
    4.5 | 103.4 | 90.1 | 101.2
> O=c1/c(=C/c2cccs2)sc2ncnn12
    -12.8 | 99.7 | 95.8 | 101.9
> CCOc1ccc(-c2cc3c(SCC)nccn3n2)cc1Cl
    -21.6 | / | / | 100.5
